Arbovirus inh – blocks arbovirus infection | 200,000 tested, 0.37% active | AID 1251 | inhibition, % at 10 µM | arbovirus infection cell-based antiviral screen;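 active = inhibition from about 30%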;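 also: bluetongue infection of BSR cells; cell survival read as ATP light after 72 h; 0% = infected wells without compound and 100% = uninfected wells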
RecA intein inh – Mtb RecA intein splicing inhibition; P9WHJ3; cell-free RecA intein splicing, fluorescence; inhibition, %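 (about 9 µM by stock and volumes)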; 290,000 tested, 0.75% active; AID 2221; in the data active = inhibition above about 30%; inconclusive = no clear call, values can overlap the other calls;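 also: 0% = vehicle wells and 100% = reference inhibitor control wells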
Target sequence (P9WHJ3 whole entry, looked up): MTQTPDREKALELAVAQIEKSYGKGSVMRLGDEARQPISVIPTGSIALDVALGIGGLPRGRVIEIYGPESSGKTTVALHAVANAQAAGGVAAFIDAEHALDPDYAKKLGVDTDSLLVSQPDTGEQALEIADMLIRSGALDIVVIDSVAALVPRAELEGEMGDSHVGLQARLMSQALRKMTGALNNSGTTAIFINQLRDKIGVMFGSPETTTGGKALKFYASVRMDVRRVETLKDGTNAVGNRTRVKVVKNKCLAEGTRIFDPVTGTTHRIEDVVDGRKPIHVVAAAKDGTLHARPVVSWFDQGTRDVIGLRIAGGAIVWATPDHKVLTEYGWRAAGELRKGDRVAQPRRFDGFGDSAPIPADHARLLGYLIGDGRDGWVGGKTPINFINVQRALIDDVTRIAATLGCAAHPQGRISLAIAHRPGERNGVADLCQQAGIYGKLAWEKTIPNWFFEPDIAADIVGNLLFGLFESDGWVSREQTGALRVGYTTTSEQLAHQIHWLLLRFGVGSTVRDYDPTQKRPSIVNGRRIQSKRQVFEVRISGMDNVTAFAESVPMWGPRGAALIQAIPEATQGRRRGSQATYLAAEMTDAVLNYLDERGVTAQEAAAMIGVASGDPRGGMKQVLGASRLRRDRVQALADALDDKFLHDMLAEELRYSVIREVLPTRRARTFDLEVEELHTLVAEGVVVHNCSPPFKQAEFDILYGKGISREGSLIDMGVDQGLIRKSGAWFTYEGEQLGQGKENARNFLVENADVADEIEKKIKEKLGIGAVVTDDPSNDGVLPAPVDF
YopH PTP inh – YopH (Yersinia) phosphatase inhibition; 140,000 tested, 0.16% active; fluorescence Ex485/Em525; inhibition, %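 (about 10 µM by stock and volumes)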;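 active = inhibition of 50% or more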;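 also: controls were vehicle for no effect and minimum signal wells for full effect; inactives centre near -20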
Mtb H37Rv – M. tuberculosis H37Rv growth inhibitors, H37Rv strain (AID 1626); 220,000 tested, 0.95% active; inhibition, % at 10 µM; hits with a dose series show IC50 in µM; M. tuberculosis H37Rv growth inhibition; higher % means a stronger effect;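 active = confirmed in a dose series; inconclusive = inhibition above 80% but not taken into the dose series; inactive = below 80% or under 30% at every dose of the series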;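 also: bacteria incubated seven days before Alamar blue readout; 0% = bacteria only wells and 100% = bacteria with antibiotic wells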
Mtb bLac sens – beta-lactam sensitization of Mtb H37Rv. M. tuberculosis H37Rv growth with meropenem, percent inhibition; hits of this screen are not shown here. AID 434955. inhibition, % at 25 µM. 330,000 tested, 0.27% active;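 active = about 74% or more and at least 40 points above the plate without the antibiotic, then above 30% in a dose series; inconclusive = first-round hits that could not be retested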;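 also: growth measured after seven days incubation then overnight dye step; 0% = bacteria only wells and 100% = bacteria with antibiotic; twin plates without the antibiotic show which effects depend on it; some results filed as inactive read as strong as hits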
Arbovirus inh repeat – also measured in Arbovirus inh; calls as there; inhibition, %; measured here: 10K subset replicate screen; many hits read low in the repeat;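 first of two repeat runs on a subset; 0% = infected and 100% = uninfected wells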
Starred values were filed as active, the others as inactive. Some of the compounds tested. The share of hits here may be higher or lower than overall.

`CC1CCc2c(sc3ncn(Cc4ccc(C(=O)O)cc4)c(=O)c23)C1` (centres undefined) gave Arbovirus inh 11, RecA intein inh 0.6, Mtb H37Rv -2% and Mtb bLac sens -4.
For COc1ccc(OC)c2sc(NC(=O)C3COc4ccccc4O3)nc12 (centres undefined) the results were Arbovirus inh -3, RecA intein inh 9.7, YopH PTP inh -18, Mtb H37Rv 5%, Mtb bLac sens -2 and Arbovirus inh repeat -3.
Screening Cc1ccc(C(=O)N=c2sccn2C)o1 returned RecA intein inh -0.8 and Mtb bLac sens 2.
Screening CCOc1ccccc1NC(=O)Nc1c(C)n(-c2ccccc2)c(=O)n1C returned Arbovirus inh 1, RecA intein inh 1.0, YopH PTP inh 17, Mtb H37Rv -9% and Mtb bLac sens -16.
`COc1ccc(C(c2nnnn2Cc2ccc(F)cc2)N2CCN(c3ccccc3)CC2)cc1` (centres undefined) gave Arbovirus inh -11, RecA intein inh 9.5, YopH PTP inh -4, Mtb H37Rv -3% and Mtb bLac sens 4.
`NC(=O)CC(NC(=O)Cc1cccc2ccccc12)c1ccc(NCCc2ccccc2F)c([N+](=O)[O-])c1` (centres undefined) gave RecA intein inh 1.0, Mtb H37Rv -3% and Mtb bLac sens -2.
CCCC(=O)NC(C)c1nc2ccccc2n1CC (centres undefined) was read as Arbovirus inh 3, RecA intein inh 2.3, YopH PTP inh -6, Mtb H37Rv 1%, Mtb bLac sens 1 and Arbovirus inh repeat 0.
For CCC(C)(C)NC(=O)C(c1ccccn1)N(C(=O)c1csnn1)C1CCCCC1 (centres undefined) the results were Arbovirus inh -3, Mtb H37Rv -3% and Mtb bLac sens 4.
For CC(C)c1ccc(-c2nn(-c3ccccc3)cc2C2C(C#N)=C(N)OC3=C2C(=O)CC(C)(C)C3)cc1 (centres undefined) the results were Arbovirus inh -17, RecA intein inh 4.5, YopH PTP inh 2, Mtb H37Rv -5% and Mtb bLac sens 25.
Cc1ccnc(NC(=O)CSc2cc(=O)n(C)c3ccccc23)c1 was read as Arbovirus inh -3, RecA intein inh 3.2, YopH PTP inh -36, Mtb H37Rv -9% and Mtb bLac sens 1.
For CCOc1cc2c3c(c1)C1(OCCO1)C(=O)N3C(C)(C)CC2C (centres undefined) the results were Arbovirus inh -1, RecA intein inh 4.1, YopH PTP inh 13, Mtb H37Rv 8% and Mtb bLac sens -4.
`COc1ccc(N2CC(C(=O)OCC(=O)c3cccc(OC)c3)CC2=O)cc1` (centres undefined) gave Arbovirus inh -5, RecA intein inh -2.6, YopH PTP inh -21, Mtb H37Rv -5% and Mtb bLac sens -11.
Screening CCOC(=O)c1ccc(N2CC(O)=C(c3nc4ccccc4c(=O)[nH]3)C2=N)cc1 returned Arbovirus inh -12, RecA intein inh -7.4, YopH PTP inh -39, Mtb H37Rv 74% and Mtb bLac sens 94.
COc1ccc(-c2nn(-c3ccccc3C)cc2CNCCc2cnc[nH]2)cc1F was read as Arbovirus inh -7, RecA intein inh 1.4, Mtb H37Rv -2% and Mtb bLac sens 3.
Nc1nnc(SCc2nc3scc(-c4ccccc4)c3c(=O)[nH]2)s1 was read as RecA intein inh 0.7, Mtb H37Rv -1% and Mtb bLac sens -6.
`Cc1ccc(NC(=O)Cn2ncc3c([nH]c4ccccc43)c2=O)cc1Cl` gave RecA intein inh -0.3 and Mtb bLac sens -1.
For CCn1cc(CN2CCc3c([nH]c4ccccc34)C2c2cccc(OC)c2OC)c(C)n1 (centres undefined) the results were Arbovirus inh -2, RecA intein inh -1.8, Mtb H37Rv -3% and Mtb bLac sens 3.
`CCn1nc(NS(=O)(=O)c2ccc([N+](=O)[O-])cc2)c2cc3ccc(C)cc3nc21` gave RecA intein inh -0.8 and Mtb bLac sens 5.
`Cc1csc(SCC(=O)NCc2ccccc2)n1` gave Arbovirus inh -2, RecA intein inh 1.7, Mtb H37Rv 1% and Mtb bLac sens 13.
`Cc1ccc(S(=O)(=O)N(C)Cc2ccc(C(=O)N/N=C/c3ccc(OC(F)F)cc3OC(F)F)cc2)cc1` gave Arbovirus inh -21, RecA intein inh 0.4, YopH PTP inh -25, Mtb H37Rv 15% and Mtb bLac sens -7.
`COc1ccc(OC)c(/C=N/OC(=O)Nc2ccc(Cl)cc2)c1` gave Arbovirus inh -15, RecA intein inh 4.8, Mtb H37Rv 0% and Mtb bLac sens 2.
`O=c1c2ccccc2nc2n1C(CSCc1ccc(Cl)cc1Cl)CS2` (centres undefined) gave Arbovirus inh 16, RecA intein inh -3.2, YopH PTP inh -10, Mtb H37Rv 1% and Mtb bLac sens -1.
Screening CC(Sc1ccc2nnc(-c3ccc(F)cc3)n2n1)C(=O)O (centres undefined) returned Arbovirus inh 6, RecA intein inh 0.8, Mtb bLac sens -7 and Arbovirus inh repeat 0.
For CC(C)c1cc(C(=O)N2CCN(C(c3ccccc3)c3ccccc3)CC2)no1 the results were Arbovirus inh -10, RecA intein inh 21, YopH PTP inh -28, Mtb H37Rv 8% and Mtb bLac sens 14.
For O=C(Nc1ccc(Br)cc1)c1cccc(S(=O)(=O)Nc2cnc3ccccc3c2)c1 the results were Arbovirus inh -8, RecA intein inh 25, YopH PTP inh -15, Mtb H37Rv -1% and Mtb bLac sens -2.
Screening O=C(NC(Cc1ccccc1)C(=O)N1CCN(S(=O)(=O)c2ccccc2)CC1)c1ccccc1 (centres undefined) returned RecA intein inh -0.4 and Mtb bLac sens -8.
Screening COc1cccc(CN2CCNC(=O)C2CC(=O)N(C)Cc2nc(C)cs2)c1OC (centres undefined) returned RecA intein inh -2.1 and Mtb bLac sens -4.
`Cc1ccc(/C=C2\C(=O)Nc3ccccc32)o1` gave Arbovirus inh 10, RecA intein inh 8.0, YopH PTP inh -24, Mtb H37Rv inconclusive and Mtb bLac sens 100.
COc1ccc(CCNC(=O)CCCC(=O)n2nc(C)c3ccccc32)cc1OC was read as RecA intein inh 1.0 and Mtb bLac sens 0.
Cc1cc(C)cc(NC(=O)CCN2CCOCC2)c1 was read as RecA intein inh 0.5 and Mtb bLac sens -3.
`COc1ccc(CNCc2cccn2C)cc1` gave RecA intein inh 1.7 and Mtb bLac sens -10.
`Cc1cc(NC(=O)C(C)SCC(=O)Nc2ccccc2N2CCCCC2)no1` (centres undefined) gave RecA intein inh 3.2 and Mtb bLac sens -6.
Screening Cc1ccc(OCC(=O)Nc2ccc3oc(=O)ccc3c2)c(C)c1 returned RecA intein inh 0.0 and Mtb bLac sens -2.
For O=C(CCl)c1ccc2[nH]c(=O)oc2c1 the results were RecA intein inh 4.4, Mtb H37Rv -1% and Mtb bLac sens -18.
Screening Cc1ccccc1OCc1n[nH]c(=S)n1-c1cccc(Cl)c1 returned RecA intein inh 0.3 and Mtb bLac sens 3.
Cc1ccc(NCc2nnc(SCC(=O)N3CCc4ccccc43)n2C)cc1 was read as Arbovirus inh -6, RecA intein inh -1.2, YopH PTP inh -39, Mtb H37Rv -3% and Mtb bLac sens -5.

Part of the list above in order of molecular weight, low to high:
Screening Cc1ccc(OCC(=O)Nc2ccc3oc(=O)ccc3c2)c(C)c1 returned RecA intein inh 0.0 and Mtb bLac sens -2.
Screening Cc1ccccc1OCc1n[nH]c(=S)n1-c1cccc(Cl)c1 returned RecA intein inh 0.3 and Mtb bLac sens 3.
COc1ccc(CCNC(=O)CCCC(=O)n2nc(C)c3ccccc32)cc1OC was read as RecA intein inh 1.0 and Mtb bLac sens 0.
For O=C(Nc1ccc(Br)cc1)c1cccc(S(=O)(=O)Nc2cnc3ccccc3c2)c1 the results were Arbovirus inh -8, RecA intein inh 25, YopH PTP inh -15, Mtb H37Rv -1% and Mtb bLac sens -2.

(more compounds)
`COc1ccc(CNc2nc(NCc3ccc(OC)cc3)n(C(=O)c3ccccc3[N+](=O)[O-])n2)cc1` gave Arbovirus inh 2, RecA intein inh 11, YopH PTP inh -47, Mtb H37Rv -1% and Mtb bLac sens 11.
COc1ccc(OC)c(C2=NOC(C(=O)Nc3ccccc3SC)C2)c1 (centres undefined) was read as Arbovirus inh -1, RecA intein inh 1.6, YopH PTP inh -19, Mtb H37Rv 0% and Mtb bLac sens -8.
`CCN(c1ccccc1)S(=O)(=O)c1ccc2[nH]c(=O)[nH]c2c1` gave Arbovirus inh 5, RecA intein inh 6.1, Mtb H37Rv 4% and Mtb bLac sens -3.
Cc1cccc(NS(=O)(=O)c2c(C)n[nH]c2C)c1 was read as Arbovirus inh 1, RecA intein inh 4.0, YopH PTP inh -24, Mtb H37Rv -1% and Mtb bLac sens 11.
Cc1ccc(C)c(S(=O)(=O)N2CCCOC2CNC(=O)C(=O)NCCCn2ccnc2)c1 (centres undefined) was read as Arbovirus inh -10, RecA intein inh -2.3, YopH PTP inh -23, Mtb H37Rv -5% and Mtb bLac sens 8.
`Cc1ccsc1C(=O)N/N=C/c1ccc([N+](=O)[O-])cc1` gave Arbovirus inh -3, RecA intein inh -1.0, YopH PTP inh -18, Mtb H37Rv -3% and Mtb bLac sens -4.
Screening Cc1ccc2c(c1)cc1c(=O)[nH]ncn12 returned Arbovirus inh 4, RecA intein inh -0.2, YopH PTP inh -37 and Mtb bLac sens 4.
Screening CCOc1ccc(NC2=NC(C(=O)NCc3ccccc3)CC(=O)N2)cc1 (centres undefined) returned Arbovirus inh 1, RecA intein inh -2.9, YopH PTP inh -9, Mtb H37Rv -6% and Mtb bLac sens 0.
`CC(C)C(OC(=O)c1cccs1)C(=O)NCc1ccc2c(c1)OCO2` (centres undefined) gave Arbovirus inh 2, RecA intein inh 0.6, Mtb H37Rv 21% and Mtb bLac sens -2.
`CC(=O)Nc1ccc(S(=O)(=O)N(C)CC(=O)NCCC2=CCCCC2)cc1` gave RecA intein inh -1.9 and Mtb bLac sens -3.
Screening CCOC(=O)c1c(C)oc2c1c(C(c1ccccc1)N1CCOCC1)c(O)c1ccccc12 (centres undefined) returned Arbovirus inh -37, RecA intein inh -3.1, YopH PTP inh 8, Mtb H37Rv -4% and Mtb bLac sens 65.
Screening CCOCC(=O)Nc1ccccc1C(=O)O returned Arbovirus inh 2, RecA intein inh 0.1, Mtb H37Rv -11% and Mtb bLac sens -5.
Cc1cc(C(=O)Nc2c(C)nn(Cc3ccc(Cl)cc3)c2C)no1 was read as Arbovirus inh -1, RecA intein inh 2.6, Mtb H37Rv 2% and Mtb bLac sens -4.
Screening Cc1scc(C(=O)N/N=C/c2ccco2)c1C returned Arbovirus inh 1, RecA intein inh -4.0, YopH PTP inh -17, Mtb H37Rv -3% and Mtb bLac sens 16.
Screening CC1=Nc2ccccc2/C1=C/c1sc(=S)n(-c2cccc(C(=O)O)c2)c1O returned Arbovirus inh -7, RecA intein inh 6.3 and Mtb H37Rv 5%.
`COc1ccccc1NS(=O)(=O)c1cc(C(=O)NCc2ccncc2)ccc1C` gave RecA intein inh -2.7 and Mtb bLac sens -2.
`CC(C)(C)NS(=O)(=O)c1ccc2nc(NC(=O)c3ccc(N4C(=O)CCC4=O)cc3)sc2c1` gave Arbovirus inh -4, RecA intein inh -0.5, Mtb H37Rv -2% and Mtb bLac sens 4.
`CN(C)C(=O)N(CCCN1CCOCC1)Cc1cccc2ccccc12` gave RecA intein inh -2.1, Mtb H37Rv -3% and Mtb bLac sens -8.
For CCN(CC(=O)Nc1ccc2c(c1)OCCO2)S(=O)(=O)c1ccccc1 the results were RecA intein inh 1.6 and Mtb bLac sens -14.
For CCc1ccccc1NC1Nc2cc(C)nn2S1 (centres undefined) the results were Arbovirus inh 2, RecA intein inh 1.6, Mtb H37Rv 9% and Mtb bLac sens -5.
For O=C(N/N=C/c1cc(Br)c(Br)o1)C(O)c1ccccc1 (centres undefined) the results were Arbovirus inh -5, RecA intein inh 1.2, YopH PTP inh -12, Mtb H37Rv -7% and Mtb bLac sens -9.
`S=C(NC1CCCCC1)N1CCc2ccccc2C1` gave Arbovirus inh 13, RecA intein inh -0.3, YopH PTP inh -25, Mtb H37Rv 5% and Mtb bLac sens 0.
Cc1ccc(C(=O)NCC(c2ccco2)N2CCc3ccccc32)cc1C (centres undefined) was read as RecA intein inh 7.4 and Mtb bLac sens -11.
Screening C=CCn1c(-c2ccc(S(=O)(=O)N3CCOCC3)cc2)csc1=Nc1ccccc1 returned Arbovirus inh 3, RecA intein inh 3.6, YopH PTP inh 10, Mtb H37Rv 6% and Mtb bLac sens -3.
For COCCNC(C)C(=O)C12CC3CC(CC(C3)C1)C2 (centres undefined) the results were Arbovirus inh -3, RecA intein inh -0.6, YopH PTP inh -17, Mtb H37Rv -2% and Mtb bLac sens 6.
O=C(O)c1ccc(S(=O)(=O)c2ccc3c(c2)C(=O)N(CC2CCCO2)C3=O)cc1 (centres undefined) was read as Arbovirus inh 3, RecA intein inh -0.4, YopH PTP inh -30, Mtb H37Rv -15% and Mtb bLac sens -12.
